Beta apoptosis = beta cell apoptosis inhibition; INS-1E cytokine-induced death, ATP luminescence, 48 h; percent of positive-control rescue, neutral wells zero; protection from apoptosis, % (concentration not given with the values); 300,000 compounds, 0.8% hits; AID 435005;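 active = all replicates at 75% or more, or half of them and the mean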;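 also: 0% = cytokine-treated negative control wells and 100% = positive control rescue; higher means more ATP so stronger rescue from cytokine killing; wells of about 40 µL received 100 nL stock; the first replicate is given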
T cruzi inh = blocks replication of Trypanosoma cruzi; T. cruzi beta-gal in NIH3T3, luminescence, 90 h; inhibition, % (test concentration not listed); 300,000 compounds, 1.4% hits; AID 1885;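 active = mean inhibition across valid replicates above about 55%, limit read from the data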;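 also: signal also drops with host cell toxicity which is not excluded here; 0% = plate median of DMSO wells and 100% = zero luminescence signal; higher percent means less beta-gal luminescence so fewer parasites; stock transfer was 50 nL into about 50 µL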
LANA-H2B inh = blocks KSHV LANA binding to histone H2A/H2B; inhibition, % (no concentration beside the values); 320,000 compounds, 0.6% hits; cell-free LANA-H2A/H2B peptide, fluorescence polarization; Q9QR71; AID 2629; in the data active = inhibition mostly above about 10%, no sharp cut-off; inactive = mostly below about 6.7%;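 also: stock transfer was 7.5 nL into about 10 µL; 0% = median of vehicle wells and 100% = median of positive control wells; one replicate is shown; the record names a cut of 25% in any replicate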
Ecoli rRNA inh = selective bacterial rRNA inhibition in E. coli; E. coli WT GFP vs humanized-ribosome RFP mutants, fluorescence, 24 h; hits give low values; DMSO median 0, no signal -100; GFP signal change (wild-type ribosome), % (concentration not given with the values); 350,000 compounds, 1.6% hits;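 active = significant combined selectivity score with lowered wild-type GFP, culture density cut under 30%, mutant RFP and density less affected; inactive = any of these conditions unmet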; also: one replicate is shown; some compounds called inactive have numbers as strong as hits
B2AR ag = agonists of human beta-2 adrenergic receptor inducing internalization | P07550 | Am2.2-beta2AR cells, FAP receptor internalization, flow cytometry; reference of the scale not given here | response, % (concentration not given with the values) | 340,000 compounds, 0.43% hits;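 active = response above a set limit, near 3 SD of response in nonfluorescent compounds, cut at about 42% in these data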;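 also: stock transfer was 100 nL into about 11 µL; a reference agonist was the positive control; negative values mostly stem from fluorescent compounds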
Target sequence (P07550 whole entry, looked up): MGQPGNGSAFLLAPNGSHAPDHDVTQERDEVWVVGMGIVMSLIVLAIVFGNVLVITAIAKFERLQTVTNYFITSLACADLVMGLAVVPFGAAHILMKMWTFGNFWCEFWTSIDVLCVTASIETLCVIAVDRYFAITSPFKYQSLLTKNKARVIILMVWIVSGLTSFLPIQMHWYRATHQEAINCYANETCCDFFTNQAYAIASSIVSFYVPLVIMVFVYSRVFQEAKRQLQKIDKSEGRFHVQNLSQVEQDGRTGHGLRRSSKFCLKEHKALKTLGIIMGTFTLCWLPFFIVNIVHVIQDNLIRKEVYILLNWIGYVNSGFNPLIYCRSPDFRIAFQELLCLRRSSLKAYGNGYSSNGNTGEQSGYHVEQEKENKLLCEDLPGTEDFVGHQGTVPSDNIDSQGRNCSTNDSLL
Calb FLC = C. albicans growth modulation with fluconazole; C. albicans CaCi-2 (fluconazole-resistant clinical isolate) + fluconazole, Alamar Blue growth, 48 h; growth inhibition, % (no concentration beside the values); 300,000 compounds, 0.57% hits; AID 1979;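 active = most replicates above 75%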;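 also: all wells also contain fluconazole at 8 µg/ml as a sub-toxic cotreatment; 0% = median of DMSO wells and 100% = median of geldanamycin control wells; wells of about 8 µL received 7.5 nL stock; the first replicate is given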
ALR H2O2 inh = blocks human ALR sulfhydryl oxidase activity. P55789. purified ALR, DTT oxidation, H2O2 HRP-luminol luminescence. inhibition, % (test concentration not listed). 290,000 compounds, 3.8% hits. AID 485317;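 active = mean and each replicate at 75% or more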;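 also: stock transfer was 7.5 nL into about 7.5 µL; 0% = neutral wells and 100% = wells with inactivated enzyme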
Target sequence (P55789 whole entry, looked up): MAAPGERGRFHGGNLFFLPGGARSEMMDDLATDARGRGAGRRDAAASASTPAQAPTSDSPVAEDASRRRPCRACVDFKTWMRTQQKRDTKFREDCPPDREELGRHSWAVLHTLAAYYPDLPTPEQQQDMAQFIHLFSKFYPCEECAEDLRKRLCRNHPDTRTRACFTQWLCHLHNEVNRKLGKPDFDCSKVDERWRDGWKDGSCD
Bfl-1 A1 inh = inhibitors of the anti-apoptotic protein A1, read as caspase activation | MEF A1-2A-BIM cells, Caspase-Glo 3/7 luminescence, 3 h; percent of clofoctol response, vehicle zero | caspase activation, % (no concentration beside the values) | 330,000 compounds, 0.066% hits;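 active = over half of replicate activation scores above 10%, or exactly half above 10 with the replicate mean above 10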;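 also: wells of about 30 µL received 50 nL stock; many hits fall short of the cut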
Ecoli rRNA inh OD600 = second read-out of Ecoli rRNA inh, no call of its own (marks repeat the call); OD600 change, %; measured here: OD600 growth;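 optical density of the mix in the first replicate; 0 = DMSO median and -100 = no signal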
Ecoli rRNA inh RFP = further read-out of Ecoli rRNA inh, marked with its call; RFP signal change, %; measured here: RFP humanized mutant strains;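 first replicate; 0 = DMSO median and -100 = no signal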
* hit, by the source's call; nt = no result given; & = joins results of further samples. The list is partial; the hit share may differ from the screen's.

canonical_smiles	Beta apoptosis	T cruzi inh	LANA-H2B inh	Ecoli rRNA inh	Ecoli rRNA inh OD600	Ecoli rRNA inh RFP	B2AR ag	Calb FLC	ALR H2O2 inh	Bfl-1 A1 inh
Cn1c(=O)c2c(nc(Cl)n2Cc2ccc(Cl)c(Cl)c2)n(C)c1=O	7	3	-0.8	nt	nt	nt	-6	-6	4	-0.1
COc1cccc2[nH]c3c(Cl)ncnc3c12	1	0	-0.5	-26	-29	1.1	7	-5	-20	0.6
O=C(CCC(=O)c1ccc(Br)cc1)Nc1cccc(C(F)(F)F)c1	-3	11	7.1	nt	nt	nt	-2	2	-6	-0.4
CCN(CC(=O)Nc1ccc2c(c1)OCCO2)CC(=O)Nc1ccc(C)c(S(=O)(=O)N(C)C)c1	-3	nt	1.6	-10	-10	4.2	21	nt	-5	0.5
Cc1ccc(C)c(N2CCN(C(=O)CCS(=O)(=O)c3ccc4c(c3)NC(=O)C(C)S4)CC2)c1 (centres undefined)	33	-16	3.9	3	1	-2.0	11	-10	1	1.1
Cc1nnc(SCc2cc(=O)[nH]c(/N=C(\N)Nc3ccccc3Sc3ccccc3)n2)s1	10	15	-2.9	10	16	0.8	-4	6	-5	-1.0
CCNc1nc(CSc2ccccc2)nc2sc(C)c(C)c12	9	19	0.3	nt	nt	nt	7	-7	83*	0.1
N#Cc1ccccc1NC(=O)COC(=O)/C=C/c1ccc(S(=O)(=O)N2CCOCC2)cc1	-3	nt	-6.7	10	11	2.4	-3	nt	41	1.1
Cn1cc(C(=O)c2ccc(Cl)cc2)cc1-c1nc2ccccc2n1C	nt	39	-0.2	nt	nt	nt	2	4	-8	1.7
CN(C(=O)COC(=O)c1nn(C)c(=O)c2ccccc12)c1c(N)n(Cc2ccccc2)c(=O)[nH]c1=O	-6	-7	3.0	6	10	-1.4	9	1	-1	0.5
CC1CN(S(=O)(=O)c2ccc(C(=O)N(CCCN(C)C)c3nc4c(Cl)cccc4s3)cc2)CC(C)O1 (centres undefined)	0	54	1.2	14	15	2.6	8	-3	-31	1.3
CC(=O)NC(CC(=O)OCc1ccc([N+](=O)[O-])cc1)c1ccccc1 (centres undefined)	1	-8	1.6	-11	0	-3.8	6	-7	-11	1.2
COCCNC(=O)CN1C(=O)NC(c2ccccc2)(c2ccccc2)C1=O	0	-17	-1.8	7	13	-0.6	2	4	nt	0.1
O=C(CSc1nccc(=O)[nH]1)N1N=C2/C(=C/c3ccco3)CCCC2C1c1ccco1 (centres undefined)	-9	11	7.1	17	6	14	3	-4	-13	-0.4
COc1ccc(/C=C/C(=O)O)cc1COc1ccccc1C	5	-10	-4.6	nt	nt	nt	6	-1	8	0.5
Cc1ccc(NC(=O)CSc2sc3c(O)cc(=O)[nH]c3c2C#N)c(F)c1	-3	0	-1.8	0	12	1.7	3	5	55	0.3
COc1cccc(CNC(=O)C(C)n2ccc3cc(S(=O)(=O)N4CCCC4)ccc32)c1 (centres undefined)	-3	3	3.6	-10	-12	4.5	3	6	-13	1.3
COc1ccc(-c2cc(C(=O)N/N=C/c3ccc4c(c3)OCO4)c3ccccc3n2)c(OC)c1	6	4	4.1	nt	nt	nt	2	-2	-6	0.9
CN(CC(=O)Nc1cccc(S(=O)(=O)N2CCOCC2)c1)CC(=O)Nc1ccc(Cl)c(C(F)(F)F)c1	4	-11	-3.8	-41	-66	-3.9	3	8	2	0.4
COc1ccc(C2=NN(CCC(=O)NC3CCC(C)CC3)C(=O)CC2)cc1 (centres undefined)	1	6	-2.5	-5	-7	-1.3	-7	1	0	1.3
COc1ccc(-n2c(=O)c3ccccc3n(CC(=O)OCc3ccccc3)c2=O)cc1OC	-3	-6	-3.3	11	10	-0.9	-9	-1	-21	0.2
C/C(=N\NC(=O)c1cccnc1)c1cc2ccccc2o1	-4	-14	0.8	13	15	0.4	3	-9	-2	0.1
CN1CCN(c2ccc(NC(=O)c3sc4ccccc4c3Cl)cc2)CC1	20	50	-1.6	-25*	-19*	-3.1*	37	-21	3	0.0
Cc1nc2cc(NC(=O)N3c4ccccc4CC3C)ccc2n1C (centres undefined)	-1	nt	2.1	-10	-5	1.1	-5	nt	-9	-2.4
Cc1nn(CC(=O)NCCc2cccs2)c(=O)c2nn(-c3ccccc3)c(C)c12	3	-1	7.1	1	7	0.2	2	-2	0	0.7
CCCCSc1nc(O)cc(=O)n1CC	2	1	1.6	2	-3	0.5	4	-3	-5	0.0
COc1ccccc1NC(=O)c1ccc2c(c1)C(=O)N(Cc1ccco1)C2=O	-6	nt	3.5	14	17	4.2	1	12	-7	1.6
COc1ccc(Cl)cc1NC(=O)C(C)N(C)Cc1ccc(C(F)(F)F)cc1 (centres undefined)	4	38	-6.3	-7	-9	-4.4	4	-20	0	0.3
CC1CN(c2cc(=O)n(-c3cccc(Br)c3)c(=O)[nH]2)CC(C)O1 (centres undefined)	-11	-10	3.8	6	8	2.0	-13	7	31	0.8
Cc1cc(NC(=O)CSc2nnc(C)n2-c2ccccc2)no1	-6	-4	4.0	4	-1	-4.2	-2	-8	-12	0.1
N#Cc1c(NC(=O)C(=O)NCCCN2CCOCC2)sc2c1CCC2	-8	-9	-4.4	2	2	0.6	-1	2	26	1.1
CCCNC(=O)c1ccc2nc(-c3ccccc3)c(-c3ccccc3)nc2c1	1	30	-1.8	nt	nt	nt	-3	32	-2	1.6
CSc1cccc(NC(=O)C2CCCN2S(=O)(=O)c2ccc(Br)s2)c1 (centres undefined)	-3	32	2.1	nt	nt	nt	4	11	-5	0.9
COc1cccc(NC(=O)CN(C)C(=O)Cc2c(C)nc3ccccc3c2C)c1	-3	nt	-4.4	3	4	0.8	10	nt	1	0.6
O=C(CNC(=O)C1CCCCC1)NC1CCCCC1	-3	3	3.6	8	10	0.5	2	-1	-5	1.1
CCOC(=O)C1=C(C)N(CCCC(=O)NCc2ccc3c(c2)OCO3)C(=O)NC1c1ccc(Br)cc1 (centres undefined)	2	nt	6.4	11	3	4.9	nt	nt	nt	1.7
COc1ccc(-c2nc[nH]c2[N+](=O)[O-])cc1	-12	-11	2.7	11	3	6.9	1	5	-15	-0.7
O=c1cc(-c2ccccc2Cl)oc2c(NS(=O)(=O)c3ccccc3C(F)(F)F)ccc(O)c12	-6	-3	0.3	-10	-32	-17	2	-5	2	-0.9
N#Cc1nc(-c2ccc(OCc3ccc(Cl)cc3)cc2)oc1N1CCOCC1	14	-9	5.7	10	7	2.3	0	7	-3	0.0
CSCCCNC(=S)Nc1cccc(S(=O)(=O)NC2=NCCC2)c1	-9	-9	-3.2	10	11	-0.9	3	-6	-3	-0.3
C[C@H]1CN([C@@H](C)CO)C(=O)c2cc(NC(=O)CCN3CCOCC3)ccc2O[C@H]1CN(C)C(=O)Nc1ccc(F)cc1	6	nt	-1.9	3&7	10&5	-1.4&-3.7	5	nt	-3	0.2
CC(C)C[C@H]1CN=C(Nc2ccccc2)N1CCC1CCCCC1	15	20	-4.1	-22&-56	-38&-80	0.9&-26	-4	-35	-2	0.5
Cc1oc(C(=O)O)cc1CSc1nnc(-c2ccccc2)n1C	-3	-9	9.0	nt	nt	nt	-1	-3	nt	0.0
Cc1ccc(-n2c(=O)[nH]c3c(C(N)=O)nc(CC(C)C)nc32)cc1	-8	0	-0.3	nt	nt	nt	-4	-7	-14	0.5
Cc1nc(SCc2nc3c([N+](=O)[O-])cccc3[nH]2)c2oc3ccccc3c2n1	-7	nt	-3.3	nt	nt	nt	52*	nt	4	17*
CN1C(=S)SC(N(O)C(=O)Nc2ccccc2)C1(C)C (centres undefined)	-1	-4	-2.1	nt	nt	nt	0	-5	0	-0.7
COc1cccc(/C=N/NC(=O)Cn2cnc3c2c(=O)n(C)c(=O)n3C)c1OC	-5	-5	2.4	-5	-1	-1.5	1	-3	3	0.3
CC1CCCCN1C(C(=O)O)c1ccccc1 (centres undefined)	nt	10	3.4	15	10	-14	3	4	10	-0.1
CN(CC(=O)Nc1cccc(F)c1)C(=O)/C=C/c1ccc(Br)s1	-1	-4	-1.2	4	7	-0.1	-2	2	-4	-0.2
CCN(CC1CCCO1)C(=O)CCc1nnc(CCc2ccc(OC)cc2)o1 (centres undefined)	-1	7	2.6	9	7	0.4	-9	-8	2	0.5

Later entries:
canonical_smiles	Beta apoptosis	T cruzi inh	LANA-H2B inh	Ecoli rRNA inh	Ecoli rRNA inh OD600	Ecoli rRNA inh RFP	B2AR ag	Calb FLC	ALR H2O2 inh	Bfl-1 A1 inh
CC(C)(C)NC(=S)NCC1CC1	-12	-15	-0.4	1	-8	-2.8	1	2	0	0.3
CCn1c(=O)cc(OCC(=O)Nc2cccc(C)n2)c2ccccc21	0	-7	4.0	nt	nt	nt	9	-18	nt	-0.4
O=C(COC(=O)Cc1ccc(F)cc1)NC1CCS(=O)(=O)C1 (centres undefined)	-5	-1	4.4	3	13	-2.5	-2	-4	33	0.7
C=C(C)COc1ccc(-c2ncncc2-c2ccccc2OC)c(O)c1	-4	66*	1.9	-19	-53	2.1	-8	15	-1	-0.9
CC(C)=C[C@@H]1C[C@H](C)[C@H]2CC[C@H](C)c3c(O[C@@H]4O[C@@H](C)[C@@H](O)[C@@H](O)[C@@H]4O)c(O)c(C)c1c32	3	nt	-1.4	nt	nt	nt	24	nt	3	0.3
c1ccc(COc2cccc(CN3CCc4ccccc4C3)c2)cc1	0	13	-1.8	-12	-12	-6.0	6	-46	-15	0.0
O=C(c1ccccc1)c1cnc(Nc2ccccc2Cl)s1	2	19	3.2	nt	nt	nt	-4	3	1	-3.2
COC(=O)c1cc(C)sc1NC(=O)C1C2C=CC(CC2)C1C(=O)O (centres undefined)	-2	1	-3.8	-8	-12	-0.5	-3	-3	4	-0.1
CCCCCOC(=O)Cc1c(O)c2ccccc2[nH]c1=O	0	-8	0.4	nt	nt	nt	-15	-4	24	0.1
O=C(N/N=C/c1cn(-c2ccccc2)nc1-c1ccccc1)c1ccco1	2	17	1.0	nt	nt	nt	5	12	-1	0.2
COc1cc(NC(=O)Nc2cc(C)on2)cc(OC)c1OC	6	5	6.6	1	6	-1.2	-1	2	-26	-0.4
CC(NC(=O)COC(=O)c1ccc(Cl)cc1O)c1ccc(F)cc1 (centres undefined)	-1	-15	-1.2	nt	nt	nt	-3	7	2	0.4
COc1ccc(C(=O)C2CCCN(C(=O)/C=C/c3ccccn3)C2)c(C)c1 (centres undefined)	0	-5	-5.3	nt	nt	nt	-10	2	1	0.8
Cc1cc(-c2ccccc2)nc(SCC(=O)N2CCCC2)n1	-1	27	2.4	4	0	3.5	-19	-1	2	0.2

Compound activity: PubChem, several laboratories
